Assay outcomes from PubChem BioAssay.
TRPML1 blocker: qHTS for Inhibitors of the Human Mucolipin Transient Receptor Potential 1 (TRPML1); hit rate 0.02% among 390,000; Mucolipin-1 (Homo sapiens), Q9GZU1; AID 624415, 2012; TRPML1-inducible cells, Ca2+ dye fluorescence, FDSS; stronger effect = lower value; inhibition of EC80 agonist-evoked calcium signal; activity change, negative = inhibition, % (concentration not given with the values); in the data active means activity change below about -50%; inconclusive means about -30% to -50%; inactive means above about -30%;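 note: stimulus is agonist 54-4 at its EC80 concentration; % is set by controls: 0 for no effect and ±100 for the full control effect; compound concentration not given in the record; the text of the record puts the active cut at -80%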
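TRPML1-DL cells, Tet-induced overnight (~16 h, 37 °C) at 1,500 cells/well, were loaded with Ca8 no-wash dye plus quencher for 45-90 min at room temperature. Compounds were pinned during FDSS kinetic reading; agonist 54-4 at EC80 (4 uM final) then added.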
Six1-Eya2 blk: qHTS Assay for Inhibitors of the Six1/Eya2 Interaction. activity change, % (test concentration not listed). Homeobox protein SIX1 (Homo sapiens) + Protein phosphatase EYA2 (Homo sapiens), …. AID 651725, 2012. AlphaScreen GST-Six1/His-Eya2 binding, biochemical; stronger effect = lower value; control for the full effect not named in the record. hit rate 0.56% among 360,000; in the data active = activity change below about -65%; inconclusive = about -30% to -65%; inactive = above about -30%; note: % is set by controls: 0 for no effect and ±100 for the full control effect; compound concentration not given in the record
Target sequence (O00167 whole entry, looked up): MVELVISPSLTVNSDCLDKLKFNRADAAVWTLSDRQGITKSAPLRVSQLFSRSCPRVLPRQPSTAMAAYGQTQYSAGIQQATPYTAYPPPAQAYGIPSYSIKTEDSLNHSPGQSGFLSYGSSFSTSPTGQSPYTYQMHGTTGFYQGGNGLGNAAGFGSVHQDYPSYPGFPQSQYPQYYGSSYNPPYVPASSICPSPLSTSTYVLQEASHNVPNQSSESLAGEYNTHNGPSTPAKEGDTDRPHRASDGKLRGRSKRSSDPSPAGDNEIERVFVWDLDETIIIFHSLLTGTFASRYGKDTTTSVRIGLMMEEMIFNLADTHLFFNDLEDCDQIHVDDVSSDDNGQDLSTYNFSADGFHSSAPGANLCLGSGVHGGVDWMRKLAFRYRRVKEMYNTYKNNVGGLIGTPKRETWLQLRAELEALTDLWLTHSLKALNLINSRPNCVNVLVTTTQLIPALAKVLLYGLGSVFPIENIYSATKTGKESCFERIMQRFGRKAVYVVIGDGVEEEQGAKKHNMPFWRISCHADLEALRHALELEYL
Target sequence (Q15475 whole entry, looked up): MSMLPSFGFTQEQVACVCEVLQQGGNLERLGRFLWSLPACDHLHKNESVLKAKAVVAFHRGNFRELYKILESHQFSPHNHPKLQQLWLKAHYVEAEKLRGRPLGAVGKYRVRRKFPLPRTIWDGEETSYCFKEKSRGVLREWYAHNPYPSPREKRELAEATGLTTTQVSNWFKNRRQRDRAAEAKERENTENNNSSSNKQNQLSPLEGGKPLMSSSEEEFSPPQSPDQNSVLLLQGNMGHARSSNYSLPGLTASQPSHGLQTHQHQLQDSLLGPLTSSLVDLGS
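AlphaScreen luminescence read after one hour at 37 °C in darkness. Pin-transferred compounds met GST-Six1 and His-Eya2 protein (5X stock 250 nM/500 nM) plus glutathione donor and Ni-chelate acceptor beads (5X, 50 ug/mL).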
TRPML1 ag: qHTS for Agonists of the Human Mucolipin Transient Receptor Potential 1 (TRPML1); Mucolipin-1 (Homo sapiens), Q9GZU1; TRPML1-expressing cells, Ca2+ dye fluorescence, FDSS; host cell line not named in the record; reference of the full effect not given here; activation, % (test concentration not listed); hit rate 0.12% among 410,000; AID 624414, 2012; in the data active = activation above about 50%; inconclusive = about 30% to 50%; inactive = below about 30%; note: 0% is about no effect; the text of the record puts the active cut at 80%
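Cells: TRPML1-DL, 1X Tet inducer, ~16 h at 37 degrees C/5% CO2. Dye: ABD Ca8 no-wash + quencher, 45-90 min RT. Read: 10 s baseline, compound add, 110 s agonist phase; 54-4 EC80 (4uM final), 110 s antagonist phase.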
D2 potentiator: Beta-Arrestin HTS for Positive Allosteric Modulators of the Human D2 Dopamine Receptor: Potentiators; potentiation, % (test concentration not listed); hit rate 0.23% among 360,000; DiscoveRx D2 beta-arrestin cells, luminescence, 90 min; 100% = 57 uM dopamine signal; AID 624464, 2012; active = potentiation of 50% or more; inconclusive = 30% to 50%; inactive = 30% or less;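 note: compound concentration not given in the record; tested on top of an EC20 dose of dopamine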
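D2 cells co-treated with compound plus 50 nM dopamine (EC20) for 90 min at 37 deg C to detect potentiation. Beta-arrestin recruitment was read as enzyme-fragment luminescence after 1 h at ambient temperature. Full response was set by 57 uM dopamine.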
PINK1 expr mod: A Quantitative High throughput Screen to Identify Chemical Modulators of PINK1 Expression | PINK1 immunofluorescence, high-content cytometry, 24 h | Potency, µM (series often up to 76.6 µM), inactives show top-dose activation (PINK1 increase), usual class: activators | hit rate 0.2% among 410,000; active = well fitted activation curve with a large enough effect; inconclusive = small, poorly fitted or top-dose-only effect; inactive = flat fitted curve, though single readings scatter; cell line not stated here;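 note: potency is the fitted concentration of half-maximal effect; % of control where 0% means no effect; nearly all actives have a fitted effect of over 65% in size; a mitochondrial uncoupler was the plate control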
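Decision-based qHTS: stable cells, 24 h exposure to five compound concentrations, CCCP as control. Fixed cells stained for PINK1 plus nuclear, mitochondrial and cell markers, cytometer read.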
D2 ag: Beta-Arrestin HTS for Positive Allosteric Modulators of the Human D2 Dopamine Receptor: Agonists | D(2) dopamine receptor (Homo sapiens), P14416 | DiscoveRx PathHunter D2 beta-arrestin, luminescence, 90 min; 100% = 57 uM dopamine signal | activation, % (test concentration not listed) | hit rate 0.084% among 360,000 | AID 624465, 2012; in the data active = activation above about 40%; inconclusive = about 15% to 40%; inactive = below about 15%; note: compound concentration not given in the record; the text of the record calls up to 30% inactive
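DiscoveRx PathHunter D2 beta-arrestin cells (2,100/well) attached overnight, then compound-stimulated 90 min at 37 C in HBSS/10 mM HEPES/0.1% Tween-20 buffer; beta-galactosidase complementation read by luminescence after 1 h at ambient temperature. Dopamine 57 uM final (EC100) as control.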
An asterisk follows results filed as active; ? = inconclusive; / = no result given; & = joins results of further samples; [ ] = remark or other dose.

SMILES	TRPML1 blocker	Six1-Eya2 blk	TRPML1 ag	D2 potentiator	PINK1 expr mod	D2 ag
CC(=O)N1c2ccc(S(=O)(=O)NCC3CCC(C(=O)NCc4ccco4)CC3)cc2CC1C (stereo not given)	-12	-1	-0.8	-2	0.6%	-1.9
COc1ccc2nc(NC(=O)c3ccc(S(=O)(=O)N4CCCC(C)C4)cc3)sc2c1 (stereo not given)	11	/	1.1	/	1.7%	/
Cc1ccc(/C=N/NC(=O)C2(C)CC2(Br)Br)cc1 (stereo not given)	-6	6	0.3	-5	1.9%	-0.9
Cc1onc(-c2ccccc2)c1C(=O)OCC(=O)c1ccccc1	25	21	1.0	-10	6.7%	0.3
Cc1ccc(Cl)cc1N1CCN(CC(=O)Nc2ccc3[nH]c(=O)[nH]c3c2)CC1	-7	-11	0.6	-12	1.4%[38.3 µM]	0.6
COCCn1c(N)c(C(=O)NCC2CCCO2)c2nc3ccccc3nc21 (stereo not given)	-3	9	-0.3	15	-1.5%	-6.5
Cc1ccc(CNC(=O)c2cccc(OCc3c(C)noc3C)c2)cc1	-3	6	1.3	?	-1.8%	-1.3
N#C/C(=C\c1ccncc1)c1nc2ccccc2c(=O)[nH]1	-14	?	-0.3	-2	0.1%	-2.7
CC(C)CCNC1c2ccccc2C(=O)N1Cc1ccccc1 (stereo not given)	-17	-2	0.7	-6	1.5%	2.2
O=C(O)CCC(=O)Nc1ccc(S(=O)(=O)N2CCCC2)cc1	-22	13	0.4	-7	0.6%	-2.7
N#Cc1c(N)n(-c2cccc(C(=O)O)c2)c2nc3ccccc3nc12	?	-9	1.6	1	0.5%	4.8
COc1ccc(CCNC(=O)C(=O)NCC2OCCN2S(=O)(=O)c2ccc(F)cc2)cc1 (stereo not given)	-4	18	-0.1	3	1.8%	0.2

Quoted from the listing:
Under D2 potentiator, CC(=O)N1c2ccc(S(=O)(=O)NCC3CCC(C(=O)NCc4ccco4)CC3)cc2CC1C (stereo not given) has -2
Under TRPML1 ag, COc1ccc2nc(NC(=O)c3ccc(S(=O)(=O)N4CCCC(C)C4)cc3)sc2c1 (stereo not given) has 1.1

(next part)
SMILES	TRPML1 blocker	Six1-Eya2 blk	TRPML1 ag	D2 potentiator	PINK1 expr mod	D2 ag
CC1C(C#N)=C(SCC(N)=O)NC2=C1C(=O)CC(C)(C)C2 (stereo not given)	4	3	4.2	-2	3.9%	-2.7
Cc1ccc(C(=O)Nc2ccc(N3CCN(S(C)(=O)=O)CC3)cc2)cc1	3	5	0.6	0	/	0.3
NC(=O)COc1ccc(Nc2nnc(-c3ccc(O)cc3)c3ccccc23)cc1	34	-7	1.8	-8	3.1%	-2.2
Cc1ccc(-c2c(C(=O)N(C)Cc3ccccc3)oc(=O)c3ccccc23)cc1	45&-8	-8	0.3&1.6	-30	-0.4%&-0.5%	-1.7
O=C1C=C(Nc2ccc(O)cc2)C(=O)c2ccccc21	9	?	3.1	14	4.8%	2.6
Cc1ccc(-c2nnc(-c3ccccc3)c(-c3ccccc3)n2)cc1	39	-18	0.0	-24	1.2%	-1.6
COC(=O)C1CCN(Cc2cn(Cc3ccccc3)nc2-c2cc3ccccc3o2)CC1	-4	-19	0.2	-11	2.0%	-1.4
COc1ccc(-c2csc(NC(=O)c3ccccc3Br)c2C(=O)O)cc1	28	?	-1.7	0	0.3%	-0.1
Nc1nonc1-c1nc2ccccc2n1CC(=O)N1CCN(c2ccc(F)cc2)CC1	18	-4	0.9	-11	6.0%	0.8
C[C@H](CO)N1C[C@H](C)[C@@H](CN(C)Cc2ccc(C(=O)O)cc2)Oc2ccc(NC(=O)Cn3cnnn3)cc2C1=O	29	6	-0.1	-8	0.7%	-7.8
C=CCNc1nc(NC(C)(C)CO)nc(OCC)n1	-28	3	-0.8	8	4.3%	0.0
O=C(NC12CC3CC(CC(C3)C1)C2)c1cnccn1	-4	1	-1.1	3	-3.6%	1.0
COc1ccc(C2CC(c3ccc4ccccc4c3)=NN2C(=O)COC(=O)C2CCC(=O)N2)cc1 (stereo not given)	-9	-27	-0.5	-2	-1.7%	0.2
CSc1ncc(Cl)c(C(=O)NCc2ccc(C)cc2)n1	15	/	1.9	/	0.4%	/
Cc1cc(N=Nc2ccc3ccccc3c2)ccc1O	10	?	-0.6	-35	4.8%	-2.2
COC(=O)c1ccc(NN=Nc2ccc(C)cc2)cc1	-9	10	-0.8	4	1.1%	-5.2
COc1ccc(-n2c(SCCC(C)C)nc3sc4c(c3c2=O)CC(C(C)C)OC4)cc1 (stereo not given)	-10	/	2.1	/	-1.4%	/
CCOC(=O)N1CCN(S(=O)(=O)c2ccc(F)c(C(=O)Nc3ccc(C(C)C)cc3)c2)CC1	0	19	2.0	-3	5.6%	-0.6
N#C/C(=C\c1ccc[nH]1)C(=O)N1CCCCC1	25	1	0.7	-4	-0.3%	-2.5
Cc1ccc(C(=O)OCc2cn(-c3ccccc3)nn2)cc1	15	21	1.4	-10	0.7%	-2.5
CCc1ccc(/C=N/n2c(C3CCCCC3)n[nH]c2=S)cc1	1	-22	1.8	-32	5.9%	0.5
CC(C)Cn1cc(NC(=O)NCc2ccc(Cl)cc2)c2ccccc2c1=O	-4	/	2.3	/	-4.5%	/
COc1ccc(C(=O)NCc2nnc(SCC(=O)NCc3ccc(F)cc3)o2)cc1	?	-2	0.3	0	-1.9%	0.3
Cc1nc2ccccc2cc1C(=O)NCc1ccccc1	-3	-3	0.1	12	-0.4%	3.1
COc1ccc(C(=O)Nn2c(C)nnc2-n2nc(C)cc2C)cc1OC	-10	-1	-0.2	3	-1.3%[38.3 µM]	-0.1
O=C(CN1CCN(Cc2ccccc2Cl)C1=O)NCc1ccccn1	-14	1	0.2	0	-0.6%	-0.6
OC(c1nc2ccc(F)cc2[nH]1)C(O)c1nc2ccc(F)cc2[nH]1 (stereo not given)	2	-13	-0.2	-3	0.9%	2.0
COc1cccc(-c2cc(C(F)(F)F)n3nc(C(=O)Nc4c(C)n(C)n(-c5ccccc5)c4=O)cc3n2)c1	-11	-7	-0.9	-6	2.0%	-3.6
CC(=O)c1cccc(NC(=O)C2CC(c3ccc(F)cc3)=NO2)c1 (stereo not given)	-20	3	-0.2	-3	-0.6%	-3.7
Cc1ccc(/C=N/NC(=O)Cn2cnc3ccccc32)cc1	7	-1	-1.3	-2	2.5%	-0.9
CCn1c(C)c(C(=O)c2ccccc2)c(C#N)c1C(=O)O	-13	12	0.1	-2	6.3%	-0.3
COc1ccc(C(CNC(=O)c2ccc(S(=O)(=O)Nc3ccccc3OC)cc2)N2CCCC2)cc1 (stereo not given)	-5	-1	-0.2	-3	-0.7%	-0.3
CCn1c(=O)c2sccc2n(Cc2ccc(C)cc2)c1=O	30	6	1.7	1	4.8%	-0.3
O=C(CSc1ccc2nnc(CCNS(=O)(=O)c3ccccc3)n2n1)Nc1ccccc1C(F)(F)F	-12	/	1.2	/	1.9%	/
O=c1[nH]c([N+](=O)[O-])nn1C(c1ccccc1)c1ccccc1	2	-2	1.0	-6	-2.3%	3.4
CCN(c1ccc(NC(=O)COC(=O)c2ccc3ccccc3n2)cc1)C(C)C	-1	?	1.5	-5	6.9%[38.3 µM]	-1.4

Sorted by value in D2 ag (falling): 4 of the compounds above.
| Compound | D2 ag |
| --- | --- |
| COc1ccc(C(=O)Nn2c(C)nnc2-n2nc(C)cc2C)cc1OC | -0.1 |
| CCn1c(C)c(C(=O)c2ccccc2)c(C#N)c1C(=O)O | -0.3 |
| O=C(CN1CCN(Cc2ccccc2Cl)C1=O)NCc1ccccn1 | -0.6 |
| CCN(c1ccc(NC(=O)COC(=O)c2ccc3ccccc3n2)cc1)C(C)C | -1.4 |

(further entries)
SMILES	TRPML1 blocker	Six1-Eya2 blk	TRPML1 ag	D2 potentiator	PINK1 expr mod	D2 ag
CCCC(=O)Nc1ccc(NC(=O)c2ccccc2)nc1	28	2	0.5	-3	-1.1%	-2.8
CC(CC(=O)NCc1ccccc1)C1CCCO1 (stereo not given)	-3	4	0.2	-7	-1.2%[38.3 µM]	-5.2
CC(C)Cn1c(SCC(=O)NC2CC2)nc2ccc(Cl)cc2c1=O	4	1	-0.2	-6	6.2%	-1.3
O=C(COC(=O)CSc1nnc(-c2ccc(Cl)cc2)o1)Nc1cc(Cl)cc(Cl)c1	11	18	2.4	-12	1.3%	-0.9
O=C(CSc1ccc2c(c1)OCCO2)Nc1ncccc1O	16	-20	4.2	7	-4.0%	1.3
CCCc1cc(=O)[nH]c2nnc(SCC(=O)Nc3cccc(NC(C)=O)c3)n12	-13	-9	-0.3	-9	2.9%	-2.6
S=C(NCc1cccs1)Nc1ccccc1Cl	-13	-3	-1.3	-4	0.6%	-3.0
CC1(C2(O)CCCCC2)NCCc2ccccc21 (stereo not given)	3	-4	-0.3	-17	-2.5%	-1.5
Cn1c(SCC(=O)c2ccc3c(c2)OCCO3)nnc1C1CC1	48	-2	0.8	-4	-1.1%	-2.1
CCCn1c(=O)c(C(=O)NNS(=O)(=O)c2ccc(Cl)cc2)c(O)c2ccccc21	-2	-2	0.0	-8	1.0%	-0.9
CCOc1ccc(-n2ccnc2SCC(=O)Nc2ccc(OC)cc2OC)cc1	24	/	4.1	/	-2.3%	/
O=C(CSc1ncccc1C(=O)O)NC1CCCCCCC1	39	6	0.5	-2	1.0%	-2.0
CSc1nc(-c2ccco2)cc(C(F)(F)F)c1C#N	5	6	1.8	-1	4.9%	-0.2
